TRPV1 PAM: HTS Assay for Compounds that Act as Potentiators of the Vanilloid Receptor 1. TRPV1-expressing cells, Fluo-8 calcium influx, capsaicin EC20 potentiation; host cell line not named in the record; control for the full effect not named in the record. potentiation, % at 8.33 µM. 320,000 tested, 0.02% active. AID 540277, 2011; active means potentiation above 80%; inconclusive means 30% to 80%; inactive means below 30%; further: 0% is about no effect
Target sequence (Q8NER1 whole entry, looked up): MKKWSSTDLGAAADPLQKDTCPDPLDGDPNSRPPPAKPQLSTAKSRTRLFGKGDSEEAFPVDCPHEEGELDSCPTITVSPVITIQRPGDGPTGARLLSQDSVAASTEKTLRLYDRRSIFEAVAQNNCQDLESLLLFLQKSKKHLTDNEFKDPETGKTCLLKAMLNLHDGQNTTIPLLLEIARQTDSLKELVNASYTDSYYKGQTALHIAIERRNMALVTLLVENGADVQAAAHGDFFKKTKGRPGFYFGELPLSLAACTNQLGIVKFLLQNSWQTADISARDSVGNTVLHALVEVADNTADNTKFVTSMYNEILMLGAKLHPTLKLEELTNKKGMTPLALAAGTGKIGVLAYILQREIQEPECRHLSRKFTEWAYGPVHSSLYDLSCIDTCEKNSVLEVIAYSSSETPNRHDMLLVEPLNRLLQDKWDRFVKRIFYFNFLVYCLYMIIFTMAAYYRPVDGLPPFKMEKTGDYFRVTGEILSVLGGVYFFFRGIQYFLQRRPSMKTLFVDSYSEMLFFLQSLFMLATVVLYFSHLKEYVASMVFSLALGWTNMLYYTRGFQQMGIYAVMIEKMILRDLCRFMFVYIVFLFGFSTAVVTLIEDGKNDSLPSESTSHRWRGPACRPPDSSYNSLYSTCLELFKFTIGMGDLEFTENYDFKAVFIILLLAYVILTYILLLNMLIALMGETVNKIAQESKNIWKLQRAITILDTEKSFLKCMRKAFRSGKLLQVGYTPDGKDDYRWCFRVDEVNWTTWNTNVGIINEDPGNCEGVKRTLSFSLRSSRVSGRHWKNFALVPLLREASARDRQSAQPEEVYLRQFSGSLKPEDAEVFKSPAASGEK
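TRPV1-expressing cells were cultured overnight at 35.5C and loaded with Fluo-8 calcium dye for 40 to 90 min at room temperature. After a 10 s baseline, compound was added and calcium influx was read kinetically for 3 min (ex 480/em 520 nm).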
Menin MLL FP FL: qHTS Assay for Inhibitors Targeting the Menin-MLL Interaction in MLL Related Leukemias: Competition With Fluorescein Labeled MLL-derived Peptide; Fluorescence polarization, fluorescein-MLL peptide displacement from menin; FP activity change, % at 61.4 µM; 290,000 tested, under 10 active; AID 1766, 2009; inconclusive = falling polarisation curve, or a change in total fluorescence; inactive = total fluorescence flat and polarisation flat or rising; no compound was filed as active; the % refers to the polarisation; negative = inhibition;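 further: % of control where 0% means no effect; inhibitors lower the polarisation; unlabelled MLL peptide was the positive control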
ClpP mod: qHTS Assay for Activators of ClpP; ATP-dependent Clp protease proteolytic subunit (Bacillus subtilis (strain 168)), P80244; purified B. subtilis ClpP, FRET peptide cleavage, 20 min; Potency, µM (top dose mostly 57.5 µM), for inactives: at the highest dose activity change, negative = active; 340,000 tested, 1.9% active; AID 651965, 2013; active = well fitted falling curve with a large enough effect; inconclusive = small, poorly fitted or top-dose-only effect; inactive = no such curve, though single readings can be large or run the other way; further: potency means the concentration at half of the fitted maximal effect; the source files actives as falling curves though it sought activators and does not explain the sign; nearly all actives have a fitted effect of over 65% in size; many hits overshoot -100%
Target sequence (P80244 whole entry, looked up): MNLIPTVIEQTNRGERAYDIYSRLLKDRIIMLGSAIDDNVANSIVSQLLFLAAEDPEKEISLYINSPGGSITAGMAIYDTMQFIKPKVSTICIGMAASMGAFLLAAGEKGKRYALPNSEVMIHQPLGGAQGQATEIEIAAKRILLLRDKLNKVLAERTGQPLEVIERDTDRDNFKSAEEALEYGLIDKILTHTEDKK
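Purified B. subtilis ClpP, 10 microg/mL final in Tris/HCl pH8 with KCl, BSA, glycerol and Tween-20, cleaved an Abz/nitrotyrosine-quenched decapeptide. Fluorescence (ex 320, em 430) was read at 0 and 20 min at room temperature. Delta was normalized to 5.8 microM ADEP and DMSO/no-enzyme controls.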
Sfp PPTase inh: qHTS Assay for Inhibitors of Bacillus subtilis Sfp phosphopantetheinyl transferase (PPTase); 4'-phosphopantetheinyl transferase ffp (Bacillus subtilis), Q9F4F7; Biochemical Sfp PPTase activity, qHTS; Potency, µM, for inactives: max response, negative = inhibition, most hits filed as inhibitors; 310,000 tested, 3.5% active; active means well fitted inhibition curve with a large enough effect; inconclusive means small, poorly fitted or top-dose-only effect, or another doubt; inactive means no such curve, though single readings can be large or run the other way;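 further: the enzyme is Sfp with the accession as filed and its product quenches rhodamine fluorescence; potency means the concentration at half of the fitted maximal effect; 0% = enzyme reaction without inhibitor and -100% = no enzyme wells; top concentration of the series not given in the record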
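Compounds were incubated with enzyme (final 15 nM) for 15 min at room temperature before substrate addition started the reaction. Fluorescence at 525 nm excitation, 598 nm emission was recorded immediately and after 30 minutes.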
TRPML1 agonist: qHTS for Agonists of the Human Mucolipin Transient Receptor Potential 1 (TRPML1); Mucolipin-1 (Homo sapiens), Q9GZU1; TRPML1-expressing cells, Ca2+ dye fluorescence, FDSS; host cell line not named in the record; reference of the full effect not given here; activation, % (no concentration beside the values); 410,000 tested, 0.12% active; in the data active = activation above about 50%; inconclusive = about 30% to 50%; inactive = below about 30%; further: 0% is about no effect; the text of the record puts the active cut at 80%
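Tet-induced TRPML1-DL cells, 1,500 per well, cultured overnight, were loaded with a no-wash Ca2+ dye for 45–90 min. Calcium fluorescence was recorded on the FDSS for 110 s after compound addition, before the EC80 agonist (4 uM 54-4) was added.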
PINK1 modulator: A Quantitative High throughput Screen to Identify Chemical Modulators of PINK1 Expression | Potency, µM (doses to about 76.6 µM), for the others: at the top dose activation (PINK1 increase), most hits filed as activators | 410,000 tested, 0.2% active | PINK1 immunofluorescence, high-content cytometry, 24 h | AID 624263, 2012; active = well fitted activation curve with a large enough effect; inconclusive = small, poorly fitted or top-dose-only effect; inactive = flat fitted curve, though single readings scatter; cell line not stated here;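 further: potency means the concentration at half of the fitted maximal effect; % of control where 0% means no effect; nearly all actives have a fitted effect of over 65% in size; a mitochondrial uncoupler was the plate control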
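Readout is PINK1 immunofluorescence, quantified alongside mitochondrial, cell and nuclear markers by laser-scanning microplate cytometry. Cells from a stable line were exposed to compound titrations (5 concentrations) for 24 hours, with CCCP controls.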
TRPML1 blocker: qHTS for Inhibitors of the Human Mucolipin Transient Receptor Potential 1 (TRPML1); activity change, negative = inhibition, % (concentration not given with the values); 390,000 tested, 0.02% active; AID 624415, 2012; Mucolipin-1 (Homo sapiens), Q9GZU1; TRPML1-inducible cells, Ca2+ dye fluorescence, FDSS; active compounds read low; inhibition of EC80 agonist-evoked calcium signal; in the data active means activity change below about -50%; inconclusive means about -30% to -50%; inactive means above about -30%;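 further: stimulus is agonist 54-4 at its EC80 concentration; on the % scale 0 is the no-effect control and ±100 the full control effect; the text of the record puts the active cut at -80%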
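Tet-induced TRPML1-DL cells loaded with Ca8 no-wash calcium dye were read kinetically on FDSS. Compound addition was followed by EC80 agonist 54-4 (4 uM final); inhibition was read over 110 s.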
Numbers without * were called inactive; ? = inconclusive; / = no result given; [ ] = another dose, or the depositor's remark. This is a random part of the collection; overall some 4.4% were active at least once.

SMILES	TRPV1 PAM	Menin MLL FP FL	ClpP mod	Sfp PPTase inh	TRPML1 agonist	PINK1 modulator	TRPML1 blocker
C=CCNC(=S)NNC(=O)c1ccc(=O)n(Cc2ccccc2)c1	16	-2.0	/	14%	-0.4	-0.3%	-20
N#Cc1ccc(OCc2nnc(SCC(=O)c3ccccc3)n2-c2ccccc2)cc1	-5	3.8	-2.0%	-1%	-0.1	0.7%	-8
Cc1ccc(NC(=O)Nc2ccccc2C#N)c(Cl)c1	5	2.8	?	9%	-0.2	0.5%	7
O=C(NCc1ccccc1)C1=C[C@@H](c2ccccc2)C[C@@H](OCc2ccc(CO)cc2)O1	6	10	-1.7%	-6%	-1.3	1.6%	15
COc1ccc(-c2cn[nH]c2N)cc1	?	4.1	-1.3%	0%	-0.7	-0.7%	-1
COCCCNc1oc(-c2ccc(COc3ccccc3C)o2)nc1C#N	/	/	3.9%	/	2.8	0.1%	2
C=CCSc1ncnc2c1oc1nc3c(cc12)COC(C)(C)C3	/	4.3	/	13%	0.1	4.3%	5
COC(=O)c1ccccc1NC(=O)CCC(=O)N1CC(C)Sc2ccccc21 (stereo not given)	/	/	-11%	/	4.9	0.2%	28
O=C(c1cc(-c2ccco2)on1)N1CCOCC1	13	1.2	-5.6%	18%	-0.7	2.5%[38.3 µM]	-5
COc1cccc(CSc2nnc(-c3ccncc3)n2N)c1	0	0.5	1.2%	11%	-0.4	0.8%	-12
CCC(Sc1nnc(C)n2c1cc1occc12)C(=O)Nc1ccccc1F (stereo not given)	/	/	-3.2%	/	3.6	-1.4%	28
CCCCNC(=O)NC(C(=O)OC)C12CC3CC(CC(C3)C1)C2 (stereo not given)	-13	8.0	-2.8%	-11%	1.0	-1.7%	-10
COc1cc(/C=C2\SC(=S)N(NC(C)=O)C2=O)ccc1OC(=O)c1ccco1	/	/	1.6%	/	0.2	0.8%	1
C=CCNc1nc(-c2ccc([N+](=O)[O-])cc2)cs1	-6	-1.3	1.0%	12%	1.2	3.0%	-16
O=C(OCc1cccc(C(F)(F)F)c1)c1cc([N+](=O)[O-])ccc1N1CCOCC1	-21	/	1.4%	/	0.3	1.4%	-7
O=S(=O)(O)c1cc2onnc2c2ccccc12	/	/	/	/	0.2	-2.0%	-18
Cc1[nH]c(C)c(S(=O)(=O)N2CCN(c3ccc(Cl)cc3)CC2)c1C(=O)N1CCCC1	8	/	0.4%	7%	0.6	-0.2%	-18
CCc1ccccc1NC(=O)c1cc2nc(-c3ccc(Br)cc3)cc(C(F)(F)F)n2n1	/	/	-11%	/	0.8	0.0%	20
CSc1nnc2c(n1)OC(c1ccccn1)N(C(C)=O)c1ccccc1-2 (stereo not given)	8	0.9	/	10%	-0.1	2.0%	18
CCCn1ccc2c(OCC(=O)Nc3ccccc3OCC)cccc2c1=O	/	/	?	/	4.5	0.7%	4
C=CCN(CC=C)S(=O)(=O)c1ccc(NC(=S)NC(=O)C2CC2)cc1	-8	-2.8	-3.2%	-1%	0.7	6.7%	-24
Cc1n[nH]c(=S)c2nn(-c3ccccc3F)c(C)c12	4	?	-1.3%	-17%	-1.6	0.5%	3
COc1ccccc1-c1cc(NCc2ccccc2)ncn1	/	-0.7	/	-5%	/	-0.5%	/
Cc1ccc(SCC(=O)Nc2nnc(-c3ccco3)o2)cc1	13	/	/	/	0.8	-0.1%	23
COc1ccccc1N1CCN(CC(=O)Nc2ccc(-n3cnnn3)cc2)CC1	-20	2.7	/	10%	-0.1	5.0%	19

The list continues.
SMILES	TRPV1 PAM	Menin MLL FP FL	ClpP mod	Sfp PPTase inh	TRPML1 agonist	PINK1 modulator	TRPML1 blocker
O=C(OCc1cc(=O)n2nc(-c3cccs3)sc2n1)c1ccccc1Br	/	/	-15%	/	-0.7	11%	-14
CCCNC(=O)c1onc(CSc2ccc(Cl)cc2)c1C(=O)NCC1CC1	19	/	-3.5%	/	2.8	4.5%	60
CCN1CCN(Cc2ccc(NC(=O)c3ccc(C)c(NC(=O)c4ccc5n[nH]nc5c4)c3)cc2C(F)(F)F)CC1	11	-1.1	-5.7%	-1%	-0.3	0.2%	-1
CC(=O)Nc1ccc(N2C(=O)c3cccc4c(O)ccc(c34)C2=O)cc1	-12	?	1.0%	-12%	72*	0.6%	-6
CCOc1ccc(S(=O)(=O)n2cc(F)c(=O)[nH]c2=O)cc1	6	2.4	/	1%	-0.2	-2.6%	10
COc1ccccc1CNC(=O)CN1C(=O)c2ccc([N+](=O)[O-])cc2C1=O	7	-12	/	10%	0.8	1.4%	10
CCOc1c2ccc(C(=O)NC3CCCc4ccccc43)cc2nn1CC (stereo not given)	24	2.9	4.9%	6%	-0.7	1.9%	4
CCOc1cc(C(=O)NC(C)c2ccncc2)cc(OCC)c1OCC (stereo not given)	10	-2.1	-2.7%	-3%	1.8	11%[38.3 µM]	13
COC(=O)c1sccc1NC(=O)c1ccc(OC)cc1	-4	-1.3	7.6%	7%	1.9	0.4%	17
CCOc1cc(C(=O)OCc2cccc(OC)c2OC)ccc1OCC(=O)N1CCOCC1	9	/	/	/	0.1	-3.1%	-14
O=[N+]([O-])c1ccc(N2CCc3ccccc3C2)cc1	-7	-3.3	2.0%	11%	0.3	5.9%	51
COc1cc(/C=N\NC(=O)c2ccccc2F)ccc1Oc1ccc([N+](=O)[O-])cn1	12	4.1	-1.5%	-4%	0.1	2.6%	10
CCn1c(CCNS(=O)(=O)c2ccccc2Br)nnc1SC	4	-3.7	/	15%	0.0	-0.4%	-9
CCOCCCNC(=O)Cn1cc2c(n1)CCCCC2	-7	0.5	-0.4%	16%	0.1	2.2%	-5
Cc1cc(NC(=O)C(C)SCC(=O)OCc2ccc([N+](=O)[O-])cc2)no1 (stereo not given)	1	/	-1.3%	/	-0.4	-0.9%	6
Cc1ccc(S(=O)(=O)N(C)C)cc1NC(=O)COc1cccc(-n2cnnn2)c1	-2	/	-6.6%	/	1.5	0.9%	8
O=C(NNC(=S)Nc1cccc(C(F)(F)F)c1)c1ccc(Cl)cc1Cl	15	8.1	4.8%	1%	-0.2	?	19
CCn1c(SCC(N)=O)nc2ccccc2c1=O	1	5.1	0.3%	?	-0.5	-0.4%[38.3 µM]	4
Cn1nc(C(C)(C)C)cc1C(=O)N1CCCCC1c1cc(C(=O)Nc2cccc3c2CCCC3)no1 (stereo not given)	/	/	-7.2%	/	-0.4	5.9%	/
Nc1nc(NCC2CCCO2)nc(Nc2cccc(Cl)c2)c1[N+](=O)[O-] (stereo not given)	?	-0.3	/	-2%	2.6	3.4%	-8
CCNS(=O)(=O)c1ccc(NC(=O)c2c(-c3ccccc3)noc2C)cc1	10	-3.6	/	9%	-0.7	0.8%	-4
Nn1c(=O)c2ccccc2n2c(SCc3ccc(C(F)(F)F)cc3)nnc12	1	4.0	-6.4%	45µM*	2.9	-1.3%	-8
CCN1CCN(CC(=O)Nc2cccc(C)c2)C(=O)C1=O	/	/	2.5%	/	-0.7	4.0%	-11
COc1ccc(OC)c(S(=O)(=O)Nc2ccc(C)c(C)c2)c1	3	-0.2	-0.7%	-2%	3.5	?	40
CC(=O)Nc1ccc(N2C(=O)c3ccc(S(=O)(=O)c4ccc(C(=O)O)cc4)cc3C2=O)cc1	20	/	1.2%	-8%	-0.4	-2.1%	-2

Next section.
SMILES	TRPV1 PAM	Menin MLL FP FL	ClpP mod	Sfp PPTase inh	TRPML1 agonist	PINK1 modulator	TRPML1 blocker
COc1ccc(-c2nc(CN3CCC(C(=O)N4CCOCC4)CC3)c(C)o2)c(OC)c1	4	/	-23%	1%	-0.4	0.8%	-13
CC1=NOC(=O)/C1=C\c1ccc(-c2cccc(Cl)c2)o1	4	10	?	20µM*	5.9	-2.5%	-1
Cc1nc2c(c(C)nn2-c2ccccc2)c(C)c1CCC(=O)Nc1ccccc1	/	/	?	/	3.2	1.9%	-7
CCCNC(=O)c1ccc(N2CCC3(CC2)CC(c2cccc(Br)c2)=NO3)c(NC(=O)c2cccc(OC)c2)c1	-18	/	?	/	-1.0	6.5%	-1
CC1CCCCC1NC(=S)NC(=O)c1ccccc1Cl (stereo not given)	/	/	-1.7%	/	0.3	10%	-2
CC1CCN(c2ccccc2NC(=O)c2ccc(N3CCOCC3)c([N+](=O)[O-])c2)CC1	3	0.4	-3.9%	6%	0.8	/	6
CCN(CC)c1ccc(/C=N/N2CCN(Cc3ccccc3)CC2)cc1	9	-1.6	-2.1%	-17%	-0.9	2.8%	-5
O=C(COc1ccccc1)N1CCN(C(=O)c2cccs2)CC1	-1	0.6	-3.1%	11%	0.4	3.0%	-2
COc1ccccc1NS(=O)(=O)c1cccc(C(=O)NCC(c2ccco2)N2CCCCC2)c1 (stereo not given)	-9	/	-27%	/	0.1	0.2%	6
CCn1c(COC(=O)CNC(=O)c2ccccc2F)nc2cc(S(=O)(=O)N(C)C)ccc21	3	/	-2.6%	/	-0.2	2.5%	-6
CCOc1ccccc1C(=O)Nc1cccc(-c2ccc(N3CCOCC3)nn2)c1	-24	/	-2.3%	/	1.0	-1.8%	-19
O=C(NCc1ccco1)c1cccc2c1C(=O)c1ccc(N3CCCC3)cc1S2(=O)=O	/	/	-1.9%	/	21	3.9%	-12
Cc1cccc(OCc2nnc(SCC(=O)N3c4ccccc4CCc4ccccc43)o2)c1	9	-2.8	/	6%	1.1	1.0%	-4

Entries of single compounds, quoted from the list. Order of values: TRPV1 PAM, Menin MLL FP FL, ClpP mod, Sfp PPTase inh, TRPML1 agonist, PINK1 modulator, TRPML1 blocker
`COc1ccc(-c2nc(CN3CCC(C(=O)N4CCOCC4)CC3)c(C)o2)c(OC)c1` as listed: 4, /, -23%, 1%, -0.4, 0.8%, -13
`CCOc1ccccc1C(=O)Nc1cccc(-c2ccc(N3CCOCC3)nn2)c1` as listed: -24, /, -2.3%, /, 1.0, -1.8%, -19
`CCN(CC)c1ccc(/C=N/N2CCN(Cc3ccccc3)CC2)cc1` as listed: 9, -1.6, -2.1%, -17%, -0.9, 2.8%, -5

Assay outcomes: PubChem, National Center for Advancing Translational Sciences (NCATS)
